MT1-MMP act inh = inhibitors of human MT1-MMP activation; P50281; HT1080 RFP-PRO-GFP cells, GFP/RFP ratio fluorescence, overnight; percent of plate control window, DMSO zero; GFP/RFP ratio change, % at 20 µM; 0.061% of 360,000 active;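 active means GFP/RFP ratio change of at least 30% with cell ATP level not reduced by more than half and red fluorescence within 50% of control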; further: strong numbers were not always called active
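Compound: 20 µM single dose, 1% DMSO / System: HT1080 RFP-PRO-GFP cells / Controls: DMSO and RFP-L50D-GFP cell wells / Read-out basis: GFP/RFP fluorescence ratio / Schedule: overnight compound exposure at 37 °C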
eIF4H FP inh = inhibitors of RNA binding by human eIF4H | 0.94% of 290,000 active | inhibition, % at 35 µM | eIF4H fluorescence polarization binding assay | AID 2012;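 active means 50% or more with normal probe brightness, or confirmed in later tests; inconclusive means above 50% with abnormal brightness, or retests that disagree; inactive means below 50% or failed in later tests; about a fifth of its hits are not listed in these tables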;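 further: calls also rest on retests at 20 µM and on dose response follow-up; 0% = protein and probe with vehicle and 100% = probe without protein; strong numbers were not always called active; many hits fall short of the cut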
Rce1 inh = yeast Ras-converting enzyme inhibition. Q03530. yeast membranes, quenched prenylated peptide cleavage fluorescence. calls only. 0.27% of 290,000 active. AID 2563;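 active means fall in fluorescence gain of 50% or more versus controls, with final raw signal at or below 3038400; inconclusive means same 50% fall but final raw signal above 3038400; inactive means fall in fluorescence gain under 50%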;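 further: plate controls were neutral control wells for no effect and wells lacking membranes for full effect; tested at 10 µM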
Env fusion inh = HIV envelope-mediated fusion inhibition; HeLa-JRFL Env/CEM21 cell fusion, luciferase; inhibition, % at 12.3 µM; 1.1% of 360,000 active; AID 651610;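 active means mean replicate inhibition score of at least 50 and every replicate individually at or above 50; inconclusive means only one of the two criteria met; inactive means mean below 50 and not all replicates reaching 50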;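 further: 0% = plate neutral controls and 100% = maraviroc near 300 nM; one replicate is shown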
CSC inhib = cancer stem cell inhibition | cancer stem cell-like cells viability, luminescence | inhibition, % at 7.5 µM | 1.1% of 300,000 active | AID 2717;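 active means mean at 75% or more and at least half the replicates too; inconclusive means mean and replicates disagree; tested in HMLE shEcad cells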;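 further: 0% = median of negative and 100% = median of positive control wells; the first replicate is given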
UUG fidelity = alters start codon recognition fidelity in yeast. AID 602363. 0.13% of 350,000 active. S. cerevisiae UUG-firefly luciferase reporter, luminescence/redox ratio. activity score, % at 18.7 µM;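 active means replicate mean at a twofold rise or more, about +100% in these data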;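 further: firefly luciferase made from a UUG start codon reports start codon fidelity; reporter light over untreated wells divided by growth signal over untreated wells; some hits fall short of that in this replicate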
PABP FP inh = blocks human PABP binding to poly(A) RNA; P11940; fluorescence polarization; inhibition, % at 35 µM; 1% of 290,000 active;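 active means 50% or more with normal probe brightness, or confirmed in later tests; inconclusive means above 50% with abnormal brightness, or retests that disagree; inactive means below 50% or failed in later tests; about a fifth of its hits are not listed in these tables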;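 further: calls also rest on retests at 20 µM and on dose response follow-up; controls were probe without protein and protein plus probe with vehicle; some compounds called inactive have numbers as strong as hits; many hits fall short of the cut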
Target sequence (P11940 whole entry, looked up): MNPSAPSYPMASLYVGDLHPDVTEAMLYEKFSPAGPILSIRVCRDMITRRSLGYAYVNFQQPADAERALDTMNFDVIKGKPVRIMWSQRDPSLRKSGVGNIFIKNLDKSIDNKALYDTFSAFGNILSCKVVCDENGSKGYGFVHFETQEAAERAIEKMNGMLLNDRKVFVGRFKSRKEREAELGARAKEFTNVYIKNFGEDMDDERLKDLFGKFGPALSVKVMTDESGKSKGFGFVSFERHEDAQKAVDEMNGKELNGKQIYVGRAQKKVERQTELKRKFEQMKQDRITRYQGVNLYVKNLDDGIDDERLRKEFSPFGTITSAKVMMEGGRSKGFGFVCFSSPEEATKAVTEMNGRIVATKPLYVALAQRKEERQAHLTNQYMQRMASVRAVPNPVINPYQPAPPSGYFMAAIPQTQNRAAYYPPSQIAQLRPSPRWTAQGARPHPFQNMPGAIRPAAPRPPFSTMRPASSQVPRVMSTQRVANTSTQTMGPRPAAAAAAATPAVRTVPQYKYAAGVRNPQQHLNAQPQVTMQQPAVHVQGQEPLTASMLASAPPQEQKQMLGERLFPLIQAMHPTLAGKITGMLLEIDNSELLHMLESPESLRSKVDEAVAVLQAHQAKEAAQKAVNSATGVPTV
eIF4H FP inh retest = recorded beside eIF4H FP inh, whose call it bears; inhibition, %; compound at 20 µM; confirmation average;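 mean of two retest wells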
PABP FP inh retest = second read-out of PABP FP inh, no call of its own (marks repeat the call); inhibition, %; compound at 20 µM; confirmation repeats;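 mean of two retest wells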
MT1-MMP act inh RFP = further read-out of MT1-MMP act inh, marked with its call; RFP signal change, %; measured here: RFP expression control read;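 0 = vehicle wells; hits needed this value within 50% of zero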
Starred values were filed as active, the others as inactive; i = inactive; ? = inconclusive; . = no result given; & = joins results of further samples; [ ] = dose if it differs, or a comment.

SMILES	MT1-MMP act inh	MT1-MMP act inh RFP	eIF4H FP inh	Rce1 inh	Env fusion inh	CSC inhib	UUG fidelity	PABP FP inh	others
COc1nnc(-c2ccc(N3CCCCC3)c(NC(=O)C3CCCCC3)c2)c2ccccc12	-18	-28	-9	i	3	33	-15	57	eIF4H FP inh retest=-1;PABP FP inh retest=12
CC1=CC2=NC(=O)/C(=C\c3cc(C)n(-c4ccccc4F)c3C)C(=N)N2O1	-2	-2	?	i	27	-11	-14	8
N/C(=N\NC(=O)Nc1ccccc1)c1ccccn1	-5	-3	-1	i	-34	13	7	0
Cc1ccccc1CSc1nc(C(C)(C)C)cc(=O)[nH]1	4	3	-10	i	5	-6	.	-2
CCOc1ccc2nc(SCC(=O)NCc3ccccc3OC)[nH]c2c1	-1	-5	1	i	-1	23	-19	2
Cc1ccc(Nc2ccc(NCc3ccccc3)nn2)cc1C	0	-2	-9	i	-88	9	8	1
C=CCn1c(SCC(=O)NCCc2ccccc2)nc2c([nH]c3ccccc32)c1=O	-4	-1	-5	i	57*	6	-19	5
CC1CCc2c(C(=O)N3CCN(S(=O)(=O)c4cccs4)CC3)csc2C1 (stereo not given)	-8	-1	-2	i	-51	10	0	-6
Cc1nc2sc(C(c3ccc(Cl)cc3)N3CCN(CCO)CC3)c(O)n2n1 (stereo not given)	0	2	2	i	-11	-5	-20	12
Cc1ccc(N2C(=O)Nc3cc(Cl)c(Cl)cc3N2O)cc1Cl	0	1	4	i	3	-7	.	-10
Cc1cc(C(=O)NCC2CCCO2)n(-c2ccccc2)n1 (stereo not given)	1	7	-4	i	-23	.	-1	-15
Nc1ccc(C(=O)Nc2ccc3c(O)cc(S(=O)(=O)O)cc3c2)cc1	3	5	.	.	10	.	-23	.
COc1cc(C=O)ccc1OCCOc1ccccc1[N+](=O)[O-]	3	4	12	i	-144	-6	.	7
Cc1ccc(N2CCN(C(=O)N3CCOCC3)CC2)cc1C	1	5	0	i	4	-5	.	18
O=C(NCc1cn(-c2ccccc2)nc1-c1ccccc1)c1ccc([N+](=O)[O-])cc1	0	-5	-6	.	9	13	-17	-15
O=C(c1ccco1)N1CCN(Cc2nc(-c3cccs3)no2)CC1	-3	-5	-7	i	-8	-6	.	7
CCCC(=O)NC(Nc1ccc(S(=O)(=O)Nc2cc(C)on2)cc1)(C(=O)OCC)C(F)(F)F (stereo not given)	4	5	5	i	-94	-21	-9	-8
Cc1cc(NC(=O)CN2CCOCC2)n(-c2ccccc2)n1	10	-4	-17	i	4	-12	12	3
O=C(NC1CCCCC1)N1CCCCCCC1	4	5	8	i	.	4	.	1
Cc1ccc(N(CC(=O)N2CCOCC2)S(C)(=O)=O)cc1Cl	1	-1	-5	i	7	-21	-16	1
C=CCn1c2ccccc2c2nn(C)c(=S)nc21	-4	-4	9	i	9	-4	-12	-1
CC(C)(C)c1ccc(C(=O)CSc2n[nH]c(=O)[nH]c2=O)cc1	5	-3	-10	i	.	-16	3	-3
O=C(Nc1cccc(Br)c1)c1ccccc1-c1ccccc1	2	-5	6	i	7	12	-23	120	eIF4H FP inh retest=-7;PABP FP inh retest=1
O=c1c2ccccc2nc2n1C(CSCc1ccc(Cl)cc1)CS2 (stereo not given)	1	-20	-3	i	.	-12	.	3
CCOc1ccc(NC(=O)CN(C)C(=O)CCN2C(=O)C3CC=CCC3C2=O)cc1OCC (stereo not given)	-6	1	.	.	13	-9	5	.
O=C(N/N=C/c1cccc(O)c1)c1cc(C2CC2)nc2ccccc12	0	4	8	i	1	4	-14	3
Cc1ccc(S(=O)(=O)N2CCC(=O)N(CCOC(=O)Nc3ccccc3C)CC2)cc1	4	1	-3	i	49	-10	-6	6
CCC(C)NC(=O)C1CCC(CNS(=O)(=O)c2ccc3c(c2)CC(C)N3C(=O)C2CC2)CC1 (stereo not given)	0	-1	-17	i	3	-11	-3	13
O=C(CN1CCOCC1)Nc1cccc([N+](=O)[O-])c1	-1	1	.	i	-20	4	-14	.
CC(OC(=O)CN(C)S(=O)(=O)c1ccc(Cl)cc1)C(=O)Nc1ccc(N2CCOCC2)cc1 (stereo not given)	5	4	5	i	.	.	-4	1
S=c1[nH]nc(-c2cc(-c3ccco3)[nH]n2)n1-c1ccccc1Cl	0	-1	41	i	-7	3	-19	48
CCOC(=O)Cn1c(=O)n(CC(=O)OCC)c2ccccc21	6	2	-7	i	-13	-5	.	20
c1ccc2c(c1)OCCc1c-2[nH]c2ccccc12	-2	-6	-6	i	-24	3	7	2
N#Cc1ccccc1OCC(=O)OCC(=O)NC1CCS(=O)(=O)C1 (stereo not given)	-2	4	.	.	.	-13	-20	.
O=C(COC(=O)c1cccc(C(F)(F)F)c1)NC(=O)NC1CCCC1	-1	1	.	.	1	-9	-15	.
CC(C)(C)OC(=O)N1CCC(c2c(C(=O)NCC3CCN(C4CCCC4)C3)cnn2-c2ccccc2)CC1 (stereo not given)	-5	-7	-9	i	-9	-5	-2	1
COc1ccc(C2C3=C(CC(C)(C)CC3=O)Oc3ncn(Cc4ccccc4)c(=N)c32)cc1 (stereo not given)	-17	-14	5	i	61*	-6	-2	-9
C/C(=N\N(C)C)C1=C(O)c2ccccc2C1=O	1	-1	-4	i	-27	-7	.	2
COc1cc2cc(CCOC(=O)c3ccc(C#N)cc3)oc(=O)c2cc1OC	1	5	.	.	-8	-16	2	.
CCn1nc(C)c(CN2CCC(Oc3ccc(C(=O)N4CCCC4)cc3)CC2)c1C	2	-3	-6	i	1	17	-17	11
CCc1c(O)nc(SCC(=O)Nc2ccc(Cl)cc2)n(-c2ccccc2)c1=O	4	9	.	.	2	.	-19	.
Cc1cccc(C(=O)Oc2c(Br)cc(Br)cc2/C=N/NC(=O)c2ccncc2)c1	0	4	-1	i	39	.	-6	-8
Cc1ccc(F)c(NC(=O)C2CCCCC2C(=O)O)c1 (stereo not given)	-1	-1	-18	i	.	-1	-14	-9
CC(=O)Nc1cccc(OCCCNS(=O)(=O)c2ccc(F)cc2)c1	2	-5	-2	i	-8	-5	.	-4
CCOC(=O)Nc1cc(NC(=O)OCC)c(C)nc1C	1	3	-3	i	9	-5	.	1
CC(Cc1c[nH]c2ccccc12)C(=O)NCc1ccco1 (stereo not given)	-3	-1	99*	i	-16	.	-1	39	eIF4H FP inh retest=92*;PABP FP inh retest=35
S=c1nc[nH]c2c1cnn2Cc1ccccc1	2	-10	-12	i	-1	-2	6	-11
CCO[C@H]1OC(C(=O)NCc2nc3ccccc3[nH]2)=C[C@@H](C2CCCCC2)[C@@H]1CCCO	3	1	-3	i	-14	38	-12	-3
CCOc1cccc(=O)c2c(C)n(-c3ccc(C(=O)O)cc3)c(C)c12	-19	4	40	i	15	1	-4	29
COc1ccc(Cn2c(=O)[nH]c3cc(C(=O)N4CCN(c5ccccc5F)CC4)ccc3c2=O)cc1	4	-8	-10	.	3	-6	-13	-10
(continued)
SMILES	MT1-MMP act inh	MT1-MMP act inh RFP	eIF4H FP inh	Rce1 inh	Env fusion inh	CSC inhib	UUG fidelity	PABP FP inh	others
Cc1cc(S(=O)(=O)N2CCN(c3ccccn3)CC2)ccc1F	4	0	8	i	-10	3	8	6
CCOc1ccc(NC(=S)NC(=O)/C=C/c2ccc(C)cc2)c([N+](=O)[O-])c1	-1	-5	-5	i	.	-3	.	-5
O=C(CCS(=O)(=O)c1ccccc1)Nc1nc2c(s1)COc1ccccc1-2	2	-4	0	i	14	30	-15	4
O=C(NCc1ccccc1)C1=C[C@@H](c2ccc(Br)cc2)C[C@@H](OCc2ccc(CO)cc2)O1	1	-1	-4	i	4[16.7 µM]	22	-8&-11	-3
COc1ccc(C(=O)Nc2nnc(Cc3cccs3)s2)cc1OC	0	-5	3	i	.	64	-22	8
COc1ccc(CN2CCCC(CNC(=O)c3ccc(F)cc3)C2)cc1OC (stereo not given)	-1	1	94	i	6	-4	.	80*	eIF4H FP inh retest=-1;PABP FP inh retest=75*
Cc1ccc(C2=NS(=O)(=O)N(C)C(C(=O)NCc3ccco3)=C2)cc1	1	0	5	i	-71	-1	-8	-16
CCOc1ccc2nc(NCCCNS(=O)(=O)c3ccccc3)c(C#N)cc2c1	3	1	8	i	-130	0	-21	36
Cc1cccc(-n2c(SCC(=O)Nc3cccc(S(=O)(=O)NC4=NCCCCC4)c3)nc3ccccc3c2=O)c1C	-9	-6	6	i	-22	3	-8	3
COc1ccc(CC(=O)NCCc2ccc(Cl)cc2Cl)cc1	0	-1	-3	i	0	-3	4	2
CCN(Cc1ccccc1)S(=O)(=O)c1c(C)n(C)c(=O)n(C)c1=O	-1	1	.	i	-15	-8	-1	.
O=C(/C=C/c1cccc(Br)c1)c1ccc2c(c1)OCO2	-1	-4	-4	i	-14	78*	-11	-6
CCOc1ncccc1C(=O)N(CCC(C)C)c1c(N)n(Cc2ccccc2)c(=O)[nH]c1=O	-7	1	.	.	0	1	-4	.
O=C(COC(=O)c1cc([N+](=O)[O-])ccc1N1CCOCC1)c1ccccc1	5	1	.	i	-3	2	.	.
O=S(=O)(Cc1nc2ccccc2s1)c1ccccc1	-2	2	-10	i	.	7	-10	-5
CC(C)(C)OC(=O)NCc1ccc(CNC(=O)c2[nH]cnc2C(=O)N[C@@H](Cc2ccccc2)C(=O)OCc2ccccc2)cc1	-9	-4	2	i	-7	1	-3	1
Cc1cc(C(=O)CN2C(=O)NC3(CCCc4ccccc43)C2=O)c(C)n1Cc1cccs1 (stereo not given)	3	-9	15	i	.	-16	-18	3
CC(C)c1ccc2oc(=O)cc(CN3CCOCC3)c2c1	0	-1	-9	i	-3	16	-11	-4
c1ccc(-c2nnc(CN3CCC4(CC3)OCCO4)o2)cc1	-1	0	-7	i	.	0	-14	0
CCc1c(C)sc(NC(=O)CCc2ccc(OC)cc2)c1C(N)=O	4	4	-10	i	.	-7	.	14
COC(=O)[C@H](NCc1ccc(OC)c(B(O)O)c1)C(C)C	2	6	.	.	-7	.	-13	.
CCC(=O)Nc1sc2c(c1C(=O)N(C)C)CCCCC2	2	0	26	i	.	1	0	-5
NC(=O)NC(=O)C(c1ccccc1)N1CCN(S(=O)(=O)Cc2ccccc2)CC1 (stereo not given)	6	4	.	.	-4	.	-8	.
COc1ccc(Br)c(C(=O)OCC(=O)N2CCC(Cc3ccccc3)CC2)c1	-10	-5	.	.	8	.	-6	.
Cc1cc(C)nc(N2CCC(C(=O)Nc3ccc4c(c3)OCO4)CC2)n1	1	1	5	.	-37	4	-10	-5
O=C(NCCc1c[nH]c2ccccc12)Nc1ccccc1	-1	-1	3	.	-16	8	-17	2
O=c1[nH]nc(CSCc2ccccc2Cl)[nH]1	9	5	-5	i	.	-6	-13	-8
O=C(NC1CC2CCCC(C1)N2C(=O)Nc1ccccc1Cl)C1CC1 (stereo not given)	0	0	-1	i	-6	-10	-14	-4
CCCCn1c(N)c(N(C)C(=O)c2ccccc2Oc2ccccc2)c(=O)[nH]c1=O	-2	1	.	.	-6	.	-14	.
COCCC(=O)N1CCC(Oc2ccc(C(=O)N3CCCCCCC3)cc2)CC1	1	-5	-16	i	-9	-18	-8	-1

Assay outcomes deposited in PubChem by several laboratories.

Compounds as they come; any-hit rate near 2.9%.
